# UUG fidelity: yeast start codon fidelity modulation. S. cerevisiae UUG-firefly luciferase reporter, luminescence/redox ratio. activity score, % at 18.7 µM. 0.13% of 350,000 active;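 active = replicate mean at a twofold rise or more, about +100% in these data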;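 also: firefly luciferase made from a UUG start codon reports start codon fidelity; reporter light over untreated wells divided by growth signal over untreated wells; some hits fall short of that in this replicate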
# CSC inhib: blocks cancer stem cells; inhibition, % at 7.5 µM; AID 2717; 1.1% of 300,000 active; cancer stem cell-like cells viability, luminescence;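 active = mean at 75% or more and at least half the replicates too; inconclusive = mean and replicates disagree; tested in HMLE shEcad cells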;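 also: 0% = median of negative and 100% = median of positive control wells; the first replicate is given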
# Env fusion inh: blocks HIV Env-driven cell-cell fusion; HeLa-JRFL Env/CEM21 cell fusion, luciferase; 1.1% of 360,000 active; inhibition, % at 12.3 µM; AID 651610;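 active = mean replicate inhibition score of at least 50 and every replicate individually at or above 50; inconclusive = only one of the two criteria met; inactive = mean below 50 and not all replicates reaching 50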;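 also: 0% = plate neutral controls and 100% = maraviroc near 300 nM; one replicate is shown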
# MT1-MMP act inh: MT1-MMP (human) activation inhibition; AID 651647; HT1080 RFP-PRO-GFP cells, GFP/RFP ratio fluorescence, overnight; percent of plate control window, DMSO zero; GFP/RFP ratio change, % at 20 µM; 0.061% of 360,000 active; P50281;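 active = GFP/RFP ratio change of at least 30% with cell ATP level not reduced by more than half and red fluorescence within 50% of control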; also: strong numbers were not always called active
#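 system = RFP-PRO-GFP reporter HT1080 cells | dosing = 20 µM single dose, 1% DMSO | timing = overnight cell settling, then overnight compound exposure, 37 °C, 5% CO2 | read-out basis = GFP/RFP fluorescence ratio | controls = DMSO and RFP-L50D-GFP cell wells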
# eIF4H inh: inhibitors of RNA binding by human eIF4H; inhibition, % at 35 µM; Q15056; AID 2012; 0.94% of 290,000 active; eIF4H fluorescence polarization binding assay;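 active = 50% or more with normal probe brightness, or confirmed in later tests; inconclusive = above 50% with abnormal brightness, or retests that disagree; inactive = below 50% or failed in later tests; about a fifth of its hits are not listed in these tables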;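 also: calls also rest on retests at 20 µM and on dose response follow-up; 0% = protein and probe with vehicle and 100% = probe without protein; strong numbers were not always called active; many hits fall short of the cut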
# Rce1 inhib: yeast Ras-converting enzyme inhibition | yeast membranes, quenched prenylated peptide cleavage fluorescence | calls only | 0.27% of 290,000 active;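 active = fall in fluorescence gain of 50% or more versus controls, with final raw signal at or below 3038400; inconclusive = same 50% fall but final raw signal above 3038400; inactive = fall in fluorescence gain under 50%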;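 also: plate controls were neutral control wells for no effect and wells lacking membranes for full effect; tested at 10 µM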
# Target sequence (Q03530 whole entry, looked up): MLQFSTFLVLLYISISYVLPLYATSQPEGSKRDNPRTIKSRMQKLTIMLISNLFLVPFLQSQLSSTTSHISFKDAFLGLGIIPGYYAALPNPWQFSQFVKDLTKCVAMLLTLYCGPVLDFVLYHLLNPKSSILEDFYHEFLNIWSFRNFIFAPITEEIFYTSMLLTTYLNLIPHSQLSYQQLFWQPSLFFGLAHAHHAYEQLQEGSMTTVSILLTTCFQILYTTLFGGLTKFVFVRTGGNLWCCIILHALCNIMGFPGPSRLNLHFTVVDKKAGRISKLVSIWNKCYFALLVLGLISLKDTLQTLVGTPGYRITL
# PABP polyA inh: blocks human PABP binding to poly(A) RNA. inhibition, % at 35 µM. P11940. fluorescence polarization. 1% of 290,000 active;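 active = 50% or more with normal probe brightness, or confirmed in later tests; inconclusive = above 50% with abnormal brightness, or retests that disagree; inactive = below 50% or failed in later tests; about a fifth of its hits are not listed in these tables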;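 also: calls also rest on retests at 20 µM and on dose response follow-up; controls were probe without protein and protein plus probe with vehicle; some compounds called inactive have numbers as strong as hits; many hits fall short of the cut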
# Target sequence (P11940 whole entry, looked up): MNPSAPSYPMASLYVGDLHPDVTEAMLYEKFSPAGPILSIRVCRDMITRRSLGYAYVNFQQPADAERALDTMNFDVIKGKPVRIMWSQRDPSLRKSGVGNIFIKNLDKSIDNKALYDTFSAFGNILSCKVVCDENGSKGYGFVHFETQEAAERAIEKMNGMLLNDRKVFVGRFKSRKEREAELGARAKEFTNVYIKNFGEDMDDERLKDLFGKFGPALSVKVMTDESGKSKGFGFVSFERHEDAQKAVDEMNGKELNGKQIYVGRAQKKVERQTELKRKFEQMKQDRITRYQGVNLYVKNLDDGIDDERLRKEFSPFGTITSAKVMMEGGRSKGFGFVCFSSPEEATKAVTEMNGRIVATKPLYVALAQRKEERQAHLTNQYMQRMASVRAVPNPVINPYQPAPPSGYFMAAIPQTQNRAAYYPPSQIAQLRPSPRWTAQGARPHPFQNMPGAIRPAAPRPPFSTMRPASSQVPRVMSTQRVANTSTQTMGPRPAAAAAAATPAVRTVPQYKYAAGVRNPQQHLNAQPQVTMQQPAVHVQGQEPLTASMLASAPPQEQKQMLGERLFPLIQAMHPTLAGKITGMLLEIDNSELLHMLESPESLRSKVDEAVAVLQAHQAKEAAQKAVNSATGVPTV
# MT1-MMP act inh RFP: second read-out of MT1-MMP act inh, no call of its own (marks repeat the call); RFP signal change, %; measured here: RFP expression control read;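 0 = vehicle wells; hits needed this value within 50% of zero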
# * hit, by the source's call; i = inactive; ? = inconclusive; · = no result given.
# Start of the data: the first three compounds (preview)
SMILES	Rce1 inhib	MT1-MMP act inh	CSC inhib	eIF4H inh	UUG fidelity	MT1-MMP act inh RFP	Env fusion inh	PABP polyA inh
Cc1c(OC(C)C(=O)N2C[C@H]3C[C@@H](C2)c2cccc(=O)n2C3)ccc2c3c(c(=O)oc12)CCCC3 (stereo not given in full)	i	-3.1	-6.6	1.0	-11.2	1.9	·	3.2
COc1cc(C2NC(=O)NC(c3ccccc3)=C2C(C)=O)c(Br)c(Br)c1O (stereo not given)	i	-0.9	·	-7.6	-9.8	0.4	-4.6	23.2
CC(C)C(=O)NN1c2ccccc2CCc2ccccc21	i	-2.0	-11.0	-2.4	-12.2	-2.2	14.9	12.5

# The whole of this part, from the first entry:
SMILES	Rce1 inhib	MT1-MMP act inh	CSC inhib	eIF4H inh	UUG fidelity	MT1-MMP act inh RFP	Env fusion inh	PABP polyA inh
Cc1c(OC(C)C(=O)N2C[C@H]3C[C@@H](C2)c2cccc(=O)n2C3)ccc2c3c(c(=O)oc12)CCCC3 (stereo not given in full)	i	-3.1	-6.6	1.0	-11.2	1.9	·	3.2
COc1cc(C2NC(=O)NC(c3ccccc3)=C2C(C)=O)c(Br)c(Br)c1O (stereo not given)	i	-0.9	·	-7.6	-9.8	0.4	-4.6	23.2
CC(C)C(=O)NN1c2ccccc2CCc2ccccc21	i	-2.0	-11.0	-2.4	-12.2	-2.2	14.9	12.5
O=C(CN1CCN(Cc2ccc3c(c2)OCO3)CC1)Nc1ccc2c(c1)OCO2	i	1.6	6.9	-8.0	-11.6	1.0	·	-2.3
O=C(OCc1ccccc1Cl)c1ccc(-n2cnnc2)cc1	i	1.6	-6.2	6.6	-20.5	2.6	-38.9	2.5
O=C(NCCN1CCCCCC1)C1CCN(S(=O)(=O)N2CCOCC2)CC1	i	2.4	-2.4	20.7	-18.8	0.4	·	-1.9
COc1ccc(Br)cc1/C=C\C(=O)NCc1cccnc1	i	2.6	-2.7	3.4	·	-4.6	5.2	-9.1
Cc1c(Br)c(C(N)=O)nn1C	i	-4.5	·	-0.7	6.9	3.4	-3.4	5.6
O=C(Nc1nnc(-c2cccs2)o1)c1cccc(C(F)(F)F)c1	i	4.3	39.1	18.6	-14.2	-3.2	26.8	-1.7
CCc1ccc(NC(=O)CSc2nnc(-c3ccco3)o2)cc1	i	-0.6	·	-14.3	-0.6	-1.3	8.1	-4.1

SMILES	Rce1 inhib	MT1-MMP act inh	CSC inhib	eIF4H inh	UUG fidelity	MT1-MMP act inh RFP	Env fusion inh	PABP polyA inh
Cc1cc(Cl)c(S(=O)(=O)NC(C(=O)O)C(C)C)cc1OCC(=O)NC1CCCCC1 (stereo not given)	i	3.9	-1.3	2.0	-10.3	0.8	17.3	-0.9
Cc1c(C)c2ccc(OCC(=O)Nc3ccc(S(N)(=O)=O)cc3)c(C)c2oc1=O	i	0.3	-6.9	12.2	·	-1.3	-3.9	10.8
O=c1[nH]c(C2CCN(S(=O)(=O)c3ccc(C(F)(F)F)cc3)CC2)nc2c1nnn2Cc1ccc(F)cc1	i	3.4	0.6	2.1	-5.8	-5.3	6.3	-1.6
COc1ccc(CCNS(=O)(=O)c2cccc3nsnc23)cc1OC	i	3.2	-2.9	0.6	-11.4	4.9	7.0	5.6
C#CCOCCOCCOCCNc1nc(N2CCN(C(=O)[C@H](CCCCN)n3cc([C@@H](N)C(C)CC)nn3)CC2)nc(N2CCN(C(=O)[C@H](Cc3cc4ccccc4[nH]3)n3cc([C@@H](N)CC(C)C)nn3)CC2)n1 (stereo not given in full)	i	0.7	-2.7	26.3	12.0	4.3	·	46.6
NC(=O)C1CCN(C(=O)CCc2nc3sc4c(c3c(=O)[nH]2)CCCC4)CC1	i	-3.3	-4.8	·	·	4.2	-21.3	·
Cc1c(OC(=O)c2ccc([N+](=O)[O-])cc2)c2c(c[n+]1C)COC(C)(C)OC2	i	-7.0	-8.5	15.9	-9.6	1.7	·	44.1
Cc1cc(OCCn2cc(/C(N)=N/O)c3ccccc32)ccc1Cl	i	3.3	26.3	6.6	-6.7	-7.3	·	5.4
C/C(=N\NC(=O)C1CC1)c1cccc(NC(=O)c2cccc(Cl)c2)c1	·	·	0.8	-12.6	·	·	·	-0.3
Nc1ncnc(Nc2cccc(Cl)c2Cl)n1	i	1.9	-6.2	-15.0	-9.5	6.6	-41.8	-3.1

SMILES	Rce1 inhib	MT1-MMP act inh	CSC inhib	eIF4H inh	UUG fidelity	MT1-MMP act inh RFP	Env fusion inh	PABP polyA inh
Fc1ccc(N2CCN(Cc3nnc(-c4ccccc4)o3)CC2)cc1	·	2.7	-2.8	-3.5	·	-1.2	13.7	0.5
CC1(C)NC(=O)N(CNc2cc(Cl)ccc2Cl)C1=O	i	-4.1	-13.3	-2.1	-8.8	-0.4	-19.0	10.4
Cc1ccc(-c2csc(NC(=O)c3ccco3)n2)cc1C	i	3.2	31.6	4.9	-15.6	-1.0	-73.4	-2.2
Fc1ccc(CNC(=S)NCc2ccccc2)cc1	i	-6.8	10.6	2.0	-25.2	-1.1	-3.9	13.1
CC(N)C(=O)NC(C(=O)NC(C)C(=O)Nc1cccc2ccccc12)C(C)C (stereo not given)	·	4.7	·	·	0.6	4.1	4.6	·
CCc1sc(C(=O)NCc2ccco2)cc1Br	i	1.8	·	-10.9	-9.6	-0.7	5.2	-2.1
O=C(NC1CC1)C1=C[C@@H](C2CCCCC2)C[C@@H](OCc2ccc(CO)cc2)O1	i	-3.7	-15.7	-5.6	-2.9	-4.5	22.4	-6.4
O=C(O)/C=C/c1cn(-c2ccccc2)nc1-c1cc2ccccc2oc1=O	i	4.1	11.5	-13.7	-3.8	2.2	-20.2	5.2
Cc1cc(CNC[C@H]2O[C@@H](n3cnc(C(N)=O)n3)[C@H](O)[C@@H]2O)c(C)n1-c1cccnc1	·	-1.0	·	·	-13.7	0.5	12.0	·
Cc1cc([N+](=O)[O-])nn1CC(=O)NNC(=S)Nc1ccc(Cl)cc1	i	15.2	6.5	-2.6	-32.1	4.4	-23.2	-4.8

SMILES	Rce1 inhib	MT1-MMP act inh	CSC inhib	eIF4H inh	UUG fidelity	MT1-MMP act inh RFP	Env fusion inh	PABP polyA inh
Cc1ccc2nc3sc(C(=O)Nc4c(C)[nH]c(=O)[nH]c4=O)c(N)c3cc2c1	i	-15.8	-10.0	14.4	-25.1	7.0	·	-6.0
CC(=O)Nc1cccn(Cc2c(Cl)cccc2Cl)c1=O	i	0.8	5.3	-8.4	·	0.3	8.0	15.2
O=C(Nc1ccccc1)c1cc(-c2ccccc2Cl)no1	i	2.3	-6.6	-4.6	-25.6	2.5	·	-2.9
COc1ccc(OC)c(NC(=O)CCc2c[nH]c3ccccc23)c1	·	1.5	23.7	14.4	·	-3.0	22.3	-12.1
COc1ccccc1NC(=O)CC1SC(=N)N(c2ccccc2)C1=O (stereo not given)	i	0.5	3.5	-4.7	·	1.6	-14.7	-1.0
O=C(Nc1ccccc1C(=O)NC1CC1)c1ccc([N+](=O)[O-])o1	·	1.7	·	·	-5.9	0.3	-90.3	·
COC(=O)c1[nH]c2ccc(Br)cc2c1NC(=O)CN1CCCCC1CCO (stereo not given)	i	-4.6	-4.7	-3.8	-14.4	-5.2	·	-5.0
CC(C)c1ccc(NC(=O)C2Cc3c(-c4cccc(C(N)=O)c4)ccnc3O2)cc1 (stereo not given)	·	6.2	·	·	4.2	4.1	-16.4	·
Cc1ccc(NC(=O)CN2CCC(C(=O)c3ccc(F)cc3)CC2)cc1	i	0.5	21.1	0.4	·	-4.8	-23.7	2.6
COc1ccc(-c2csc(/C(C#N)=C\c3cccc([N+](=O)[O-])c3)n2)cc1	i	·	0.2	3.0	·	·	·	-1.8

SMILES	Rce1 inhib	MT1-MMP act inh	CSC inhib	eIF4H inh	UUG fidelity	MT1-MMP act inh RFP	Env fusion inh	PABP polyA inh
CC(C(=O)NCCN1C(=O)S/C(=C\c2cccs2)C1=O)N1C(=O)c2ccccc2C1=O (stereo not given)	i	0.7	-10.5	-2.7	·	3.6	-33.6	-0.2
Cc1cccn2cc(CNS(=O)(=O)c3ccc4ccccc4c3)nc12	i	4.4	-30.5	1.6	-20.1	-10.8	?	7.4
CC1Sc2ccc(S(=O)(=O)N3CCC(C(=O)Nc4cccc(Cl)c4)CC3)cc2NC1=O (stereo not given)	i	-14.4	16.3	-7.7	-0.5	-26.8	4.1	4.1
O=C(NCCc1ccccc1)C(=O)NCC(c1ccco1)N1CCOCC1 (stereo not given)	i	-6.0	-2.4	-0.3	4.8	-5.0	15.5	-6.4
O=C(NCC1CCCO1)c1ccc(NC(=O)c2cccc(Cl)c2)cc1 (stereo not given)	i	1.7	-6.5	·	·	-0.9	4.7	·
Clc1ccc(CNCc2cccs2)cc1Cl	i	1.9	1.0	2.8	-24.7	3.9	0.0	-18.6
O=C(NC1CCCC1)C1(c2ccccc2)CCN(S(=O)(=O)c2ccccc2)CC1	i	-0.7	4.9	12.3	-10.8	-3.4	-59.4	0.2
CCOC(=O)C1=C(C)NC(SC)=C(C#N)C1CC(C)C (stereo not given)	i	-1.4	65.9	-1.7	-6.1	-14.4	-40.1	3.9
O=C(NCCN1CCOCC1)c1cc(=O)[nH]c2ccc(Br)cc12	i	7.2	-16.1	-10.9	·	9.6	·	-2.5
CCc1nc2ccc(C(=O)N3CCN(S(=O)(=O)CC)CC3)cn2c1N(CC)Cc1cccc(Br)c1	·	-4.1	·	·	-17.1	-0.8	4.4	·

SMILES	Rce1 inhib	MT1-MMP act inh	CSC inhib	eIF4H inh	UUG fidelity	MT1-MMP act inh RFP	Env fusion inh	PABP polyA inh
O=C(NCc1ccc(F)cc1)C1CCCN1S(=O)(=O)c1cccc2nsnc12 (stereo not given)	i	0.6	·	-11.0	-19.2	6.4	-1.3	2.9
Cc1ccc(S(=O)(=O)NNC(=O)Nc2ccccc2F)c(C)c1	i	-0.3	4.7	-10.3	2.4	3.7	-8.0	1.3
Cc1ccc(OCCCCNC2CCCCC2)c(C)c1	i	5.4	36.0	6.8	·	1.5	12.4	-10.1
NC(=S)Nc1cccc2cc3ccccc3cc12	i	-47.4	4.3	?	-32.2	8.2	-111.3	?
OC(COCc1ccccc1)Cn1cnc2ccccc21 (stereo not given)	i	-2.8	3.9	-1.8	-26.3	-5.2	-34.5	-4.4
CCNC(=O)COc1ccc(S(=O)(=O)Nc2ccccc2)cc1	i	-4.1	-1.2	-3.5	·	0.2	·	-5.2
O=C(Nc1ccc2c(c1)OCCO2)c1cccc(Cl)c1	i	0.8	-0.1	2.6	-8.7	-3.8	-76.2	4.1
CCc1c(C(=O)Nc2ccc(OC)cc2)[nH]c(C)c1C(C)=O	i	0.2	-10.3	-2.9	-25.7	0.8	-178.5	0.2
Cc1cccc(COc2ccccc2/C=N/Nc2ccc([N+](=O)[O-])cc2)c1	i	-80.1	16.6	-4.1	-0.9	-3.3	24.3	1.5
CCc1cc(C(=O)N(CC)CC(=O)Nc2c(F)cccc2F)sc1C	·	1.5	·	·	0.1	3.0	-4.5	·
N#Cc1cnn(-c2ccccc2)c1NC(=O)CN1CCN(c2ccccc2)CC1	i	8.7	-7.2	-7.4	-0.1	0.8	-3.5	-10.4
CC(=O)N1CCCc2cc(S(=O)(=O)N(C)Cc3ccccc3)ccc21	i	-16.8	-1.1	-6.2	14.4	-2.5	?	-0.6
Oc1cccc2ccc(/C=C/c3ccccc3Br)nc12	i	-5.6	97.2*	8.2	-20.5	-1.6	-36.1	11.8

# Some of the compounds tested; count on the stated rates, not on these rows.
